# CtBP-E1A blk = inhibitors of CtBP/E1A interaction; AlphaScreen GST-E1A/His-CtBP binding, 1536-well; active compounds read low; control for the full effect not named in the record; activity change, % (test concentration not listed); 0.49% of 340,000 active; in the data active means activity change below about -65%; inconclusive means about -30% to -65%; inactive means above about -30%; further: on the % scale 0 is the no-effect control and ±100 the full control effect
#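 Homogeneous bead-based format: GST-tagged E1A captured on glutathione donor beads, His-tagged CtBP on nickel acceptor beads; compounds precede bead addition by 2 h at 37 °C.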
# TRPML1 blocker = blocks the human TRPML1 channel; Q9GZU1; TRPML1-inducible cells, Ca2+ dye fluorescence, FDSS; active compounds read low; inhibition of EC80 agonist-evoked calcium signal; activity change, negative = inhibition, % (concentration not given with the values); 0.02% of 390,000 active; in the data active means activity change below about -50%; inconclusive means about -30% to -50%; inactive means above about -30%;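 further: stimulus is agonist 54-4 at its EC80 concentration; on the % scale 0 is the no-effect control and ±100 the full control effect; the text of the record puts the active cut at -80%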
# Target sequence (Q9GZU1 whole entry, looked up): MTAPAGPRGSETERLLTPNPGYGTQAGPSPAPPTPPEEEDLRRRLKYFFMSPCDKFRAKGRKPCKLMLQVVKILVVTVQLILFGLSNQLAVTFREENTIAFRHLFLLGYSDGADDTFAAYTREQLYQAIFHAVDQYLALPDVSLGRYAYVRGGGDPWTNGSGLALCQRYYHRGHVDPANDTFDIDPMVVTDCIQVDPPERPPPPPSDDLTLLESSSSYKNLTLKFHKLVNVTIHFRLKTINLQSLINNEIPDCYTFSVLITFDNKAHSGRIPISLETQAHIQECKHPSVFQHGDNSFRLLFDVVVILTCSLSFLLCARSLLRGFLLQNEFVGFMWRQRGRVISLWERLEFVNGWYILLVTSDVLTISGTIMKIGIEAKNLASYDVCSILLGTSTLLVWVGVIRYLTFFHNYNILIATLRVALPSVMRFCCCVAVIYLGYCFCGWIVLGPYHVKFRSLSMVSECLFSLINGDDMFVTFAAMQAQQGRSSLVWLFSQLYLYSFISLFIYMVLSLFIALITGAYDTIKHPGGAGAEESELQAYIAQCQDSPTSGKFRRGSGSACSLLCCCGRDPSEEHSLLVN
#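 Tet-induced TRPML1-DL cells loaded with Ca8 no-wash calcium dye were read kinetically on FDSS. Compound addition was followed by EC80 agonist 54-4 (4 uM final); inhibition was read over 110 s.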
# TRPV1 potentiator = potentiators of human vanilloid receptor 1 (TRPV1) | Q8NER1 | TRPV1-expressing cells, Fluo-8 calcium influx, capsaicin EC20 potentiation; host cell line not named in the record; control for the full effect not named in the record | potentiation, % at 8.33 µM | 0.02% of 320,000 active; active means potentiation above 80%; inconclusive means 30% to 80%; inactive means below 30%; further: 0% is about no effect
#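 Fluo-8 calcium influx in TRPV1-expressing cells, kinetic read (ex 480/em 520 nm). Compound added and read 3 min for agonist activity, followed by capsaicin at EC20 final and 2 min further read for enhancement.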
# TRPML1 agonist = agonists of human TRPML1 channel | Q9GZU1 | 0.12% of 410,000 active | TRPML1-expressing cells, Ca2+ dye fluorescence, FDSS; host cell line not named in the record; reference of the full effect not given here | activation, % (no concentration beside the values); in the data active = activation above about 50%; inconclusive = about 30% to 50%; inactive = below about 30%; further: 0% is about no effect; the text of the record puts the active cut at 80%
#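 Agonist activity was taken from a 110 s kinetic Ca2+ dye read on the FDSS after pinning compounds onto TRPML1-DL cells. The cells were seeded at 1,500/well with Tet inducer, incubated about 16 h, then dye-loaded at room temperature.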
# Six1-Eya2 blk = inhibitors of human Six1/Eya2 interaction; AlphaScreen GST-Six1/His-Eya2 binding, biochemical; active compounds read low; control for the full effect not named in the record; Q15475+O00167; activity change, % (no concentration beside the values); 0.56% of 360,000 active; AID 651725; in the data active = activity change below about -65%; inconclusive = about -30% to -65%; inactive = above about -30%; further: on the % scale 0 is the no-effect control and ±100 the full control effect
#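 AlphaScreen with GST-Six1 and His-Eya2 (5X mix: 250 nM and 500 nM), glutathione donor and nickel acceptor beads; buffer 50 mM Tris pH 8.0, 300 mM NaCl, 1 mM TCEP; 1 h at 37 C in the dark.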
# D2 potentiator = positive allosteric modulators of human D2 dopamine receptor | P14416 | DiscoveRx D2 beta-arrestin cells, luminescence, 90 min; 100% = 57 uM dopamine signal | potentiation, % (concentration not given with the values) | 0.23% of 360,000 active | AID 624464; active = potentiation of 50% or more; inconclusive = 30% to 50%; inactive = 30% or less;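 further: compound concentration not given in the record; tested on top of an EC20 dose of dopamine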
# Target sequence (P14416 whole entry, looked up): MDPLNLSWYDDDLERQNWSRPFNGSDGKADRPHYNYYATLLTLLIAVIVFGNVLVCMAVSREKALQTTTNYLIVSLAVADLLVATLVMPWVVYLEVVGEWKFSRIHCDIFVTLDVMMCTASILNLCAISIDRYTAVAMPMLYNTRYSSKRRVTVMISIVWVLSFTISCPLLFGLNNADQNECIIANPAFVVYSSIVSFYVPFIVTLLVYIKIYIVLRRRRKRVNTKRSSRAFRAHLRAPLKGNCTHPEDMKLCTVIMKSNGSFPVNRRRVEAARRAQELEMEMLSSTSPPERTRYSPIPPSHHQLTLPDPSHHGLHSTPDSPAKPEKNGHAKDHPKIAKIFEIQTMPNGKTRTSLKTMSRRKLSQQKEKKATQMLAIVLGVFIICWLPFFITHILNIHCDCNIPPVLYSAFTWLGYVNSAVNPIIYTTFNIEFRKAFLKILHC
#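 PathHunter beta-arrestin assay in DiscoveRx D2 cells. Compounds were added with an EC20 of dopamine (50 nM final) for 90 min at 37 deg C. Luminescence was read 1 h after detection reagent, with 57 uM dopamine as the EC100 control.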
# * = called active by the depositor; ? = inconclusive; . = not tested or not shown.
SMILES,CtBP-E1A blk,TRPML1 blocker,TRPV1 potentiator,TRPML1 agonist,Six1-Eya2 blk,D2 potentiator
Cc1ccc(Nc2cc(=O)oc3ccccc23)c(C)c1,-1,-9,-6,0.6,6,-1
C=CCC[C@H](Cc1ccc(F)cc1)C(=O)OC[C@H](C)NC(=O)[C@@H](CC=C)CC(=O)N[C@H](CO)Cc1ccccc1,7,-24,.,0.5,-6,-1
OCCNCCOc1ccccc1F,3,8,10,-1.4,1,-13
COc1ccc(S(=O)(=O)n2nc(-n3c(C)ccc3C)c3c(F)cccc32)cc1OC,7,8,-13,1.0,-6,-13
Cc1ccc2c(c1)[C@H]1[C@H](CO2)[C@H](c2ccccc2)[C@]2(C)C(=O)N(C)CC(=O)N12,-24,-6,.,0.2,2,-5
CCOC(=O)CS(=O)(=O)CC(=O)Nc1ccc([N+](=O)[O-])cc1OC,7,0,-5,-0.7,0,-3
O=C(c1ccccc1)N1CCOC12CCN(c1ncc(C(F)(F)F)cc1Cl)CC2,4,-5,3,1.2,4,-9
COC(=O)c1ccc(NS(=O)(=O)c2cc3c4c(c2)CCC(=O)N4CCC3)cc1,-1,-5,10,2.3,2,11
CC(=O)N1CCC(N(CCN2CCOCC2)C(=S)Nc2c(C)cccc2C)CC1,4,-6,6,0.7,5,-5
Cc1ccc(C(=O)NCC(=O)Nc2ccc(Cl)cc2)s1,9,1,.,0.4,-9,-17
Cc1cc(C)cc(NC(=O)C2CCCN(S(=O)(=O)c3ccc4[nH]c(=O)ccc4c3)C2)c1 (centres undefined),3,21,-19,2.1,0,0
O=C1CCN(CC2CCCCC2)C=C1C(=O)c1ccccc1,9,-2,.,0.5,-5,-4
O=C(O)c1ccc(NC(=S)NC(=O)c2ccc(-c3ccccc3)cc2)cc1,1,4,-8,0.0,-9,-2
COc1ccc(OC)c(S(=O)(=O)N2Cc3ccccc3CC2C(=O)O)c1 (centres undefined),3,16,-2,-0.1,6,-9
Cc1sc(NC(=O)c2ccc(F)cc2)c(CN2CCCCCC2)c1C,-2,13,-11,-0.3,3,-9
Nc1nonc1-c1nc2ccccc2n1CCC(=O)O,-2,-2,-8,-0.4,-1,-6
COc1ccccc1NC(=S)N1CCCCCC1,5,27,-12,-0.3,11,-4
COc1ccc(NC(=O)CN2C(=O)NC(C)(c3ccc(C)cc3)C2=O)cn1 (centres undefined),-4,11,1,0.8,7,-5
COc1cc(CN2C[C@@H](CO)O[C@@H](n3cnc4c(NC(C)C)ncnc43)C2)cc(OC)c1OC,3,.,.,-0.5,5,-5
CSCCC(NS(=O)(=O)c1ccc(C)cc1)C(=O)NCC(C)(C)N1CCOCC1 (centres undefined),.,-1,3,-0.9,7,0
CC(C)(C)c1ccc(S(=O)(=O)N2CCCC2C(=O)N2CCOCC2)cc1 (centres undefined),2,-14,-3,0.6,13,-7
CC1(C)CC(=O)C2=C(C1)NC(=O)CC2c1ccc(N(CCC#N)CCC#N)cc1 (centres undefined),3,38,4,3.0,0,11
CCN(Cc1ccccc1)C(=O)COC(=O)c1cc(Cl)nc(Cl)c1,-4,-5,-2,-0.4,1,-19
Nc1nc2nonc2nc1N1CCCCC1,5,-3,4,0.2,0,-4
CC(C)CC(=O)NC(NC(=O)CC(C)C)c1cccc([N+](=O)[O-])c1,10,-1,10,0.6,0,-3
O=C1c2ccccc2C(=O)N1CCC(=O)N1CCCc2ccccc21,7,3,-14,-0.8,-1,-8
O=C(Nc1ccnn1C1CCN(CCCC2CCCC2)CC1)c1ccccc1,-1,-3,0,-0.1,-1,-34
COc1ccc([C@H]2CC(=O)C=C(c3ccc(Cl)c(C(F)(F)F)c3)C2)cc1,-4,7,-3,0.9,-16,-2
O=C(COC(=O)c1c[nH]c2ccccc12)Nc1ccc([N+](=O)[O-])cc1,4,12,-2,0.6,-1,-8
CCc1cccc(NC(=O)CCS(=O)(=O)c2cc3c(cc2C)NC(=O)CO3)c1,2,-10,10,0.2,4,-10
CC(C)C(OC(=O)c1cc2c(s1)CCCCC2)C(=O)NC(N)=O (centres undefined),-19,-3,-1,3.5,5,-9
CCCCNC(=S)N(CCCO)Cc1cc2cc3c(cc2[nH]c1=O)OCCO3,0,7,-7,-0.6,4,1
CCOc1ccc(NC(=O)CN(C)C(=O)c2ccc(C)c(S(=O)(=O)N3CCCCC3)c2)cc1OCC,1,7,4,0.5,4,-6
CC(=O)c1ccc(OCc2cc(C(=O)NC(C)c3cnn(C)c3)no2)cc1 (centres undefined),3,-2,-8,-0.1,3,-9
Cn1cccc1/C=N/NC(=O)CNc1ccc2ccccc2c1,-8,-19,-9,-0.3,-11,3
Cc1c(Cl)cccc1N=C1SCCN1C(=O)CN1C(=O)NC2(CCCC2)C1=O,3,-4,5,0.8,-11,-22
O=C(O)Cc1c[nH]c2cccc(O)c12,-4,.,?,.,?,15
COc1ccc2oc(C(=O)OC(C)C(=O)N3C(C)CCCC3C)c(C)c2c1 (centres undefined),-9,-7,.,1.5,-2,-6
CCCCN(C=O)c1c(CC)nc2ccc(C(=O)N3CCCCC3)cn12,-14,77,.,-0.6,-19,-8
O=C1C=C(c2ccc3[nH]ccc3c2)C[C@@H](c2ccc(F)cc2)C1,-4,24,-8,1.0,-8,-10
COc1cccc2cc(C(=O)NCc3ccccc3Cl)c(=O)oc12,0,22,7,-0.2,6,0
Cc1scc(C(=O)NNC(=S)NCC2CCCO2)c1-c1ccccc1 (centres undefined),-1,8,7,1.8,4,-38
Cc1csc(NC(=O)c2cccc(Cn3nc(C)c(Br)c3C)c2)n1,-11,-9,-24,1.8,-8,-1
CC(=O)OC[C@@H]1CN(Cc2ccccc2)C[C@H](n2cnc3c(NC4CCCC4)ncnc32)O1,-2,.,.,-1.0,-2,-2
CCC(C)(C)n1nnnc1C(C(C)C)N(CCCO)Cc1cc2cc(C)ccc2[nH]c1=O (centres undefined),-2,-5,-25,1.1,3,-4
CCc1ccc(C(=O)NN(C(=O)c2ccc(CC)cc2)C(C)(C)C)cc1,0,65,-2,0.2,0,-16
S=C(NCCc1ccccc1)N/N=C/c1cccc(Cl)c1Cl,8,28,12,2.5,-6,-1
COc1ccc(C(=O)N(C)Cc2ccon2)cc1OC1CCN(C(C)C)CC1,-2,0,8,0.5,1,-4
Cc1ccc(NC(=O)c2sc(=S)n(-c3cc(C)ccc3F)c2N)cc1,-9,-2,-13,-0.7,-22,-7
CC1CCC(NC(=O)C2c3ccccc3C(=O)N2Cc2cccs2)CC1 (centres undefined),1,-2,1,2.0,7,-7
# (further entries)
SMILES,CtBP-E1A blk,TRPML1 blocker,TRPV1 potentiator,TRPML1 agonist,Six1-Eya2 blk,D2 potentiator
COc1cccc(NC(=O)Cn2c3ccc(OC)cc3c3nc4n(c(=O)c32)CCS4)c1,.,18,9,0.0,9,-4
COc1ccc2nc(C)cc(NCc3cccc(C(F)(F)F)c3)c2c1,-8,-3,12,0.4,-2,-14
CCN1CCN(C(=O)C2CCN(S(=O)(=O)c3ccc4c(c3)NC(=O)C(C)S4)CC2)CC1 (centres undefined),-7,-3,9,-0.3,12,-4
Cc1occc1-c1nnc(SCC(=O)N2CCCC(C)C2)o1 (centres undefined),0,7,-16,0.8,2,-7
CC(=O)c1ccc(OC(=O)c2nc(-c3ccccc3)oc2C)cc1,14,4,-7,-0.2,-1,4
O=C(NCCc1ccccc1)C1CC(=O)N(CCc2ccccc2)C1 (centres undefined),-3,-28,-3,0.1,4,-8
Cc1cc(Br)ccc1NC(=S)NCCc1ccccc1,-7,0,1,0.5,1,1
COc1ccc([C@H]2CC(=O)C=C(c3cc(C)ccc3OC)C2)cc1,2,5,-28,1.0,-4,-5
O=c1oc2ccccc2nc1/C=C(\O)c1ccccc1,.,-2,3,0.1,-3,-16
Cc1cc(C)cc(OCC(=O)Nc2cccc(-c3nc4ncccc4o3)c2)c1,-2,31,.,-0.8,-4,-4
O=C(Cc1cccs1)NCCS(=O)(=O)N1CCN(c2ccccc2)CC1,-1,-14,.,-0.8,7,0
CCCC(=O)N1CCCC1(C)C(=O)NCc1ccc(SC)cc1 (centres undefined),9,.,.,-0.9,-4,-3
O=C(CCl)NN1C(=O)NC2(CCCCC2)C1=O,-1,12,0,1.1,9,-8
CC1=CCC2([N+](=O)[O-])CN(CC(=O)O)CC1([N+](=O)[O-])C2 (centres undefined),3,-9,5,0.5,13,2
COCCCNC(=O)/C(C#N)=C/c1ccc(OCC(=O)O)c(OC)c1,5,-4,7,-0.3,?,22
O=[N+]([O-])c1ccc(OCCCOc2cccc3cccnc23)cc1,-3,5,?,3.7,-3,-5
O=C(N/N=C/c1cn(-c2cccs2)nc1-c1ccccc1)c1ccccc1Br,-27,1,0,0.4,-14,14
COc1cc(NC(=O)C/C(C)=N/NC(=O)c2cccs2)c(OC)cc1Cl,-30,11,6,0.1,?,-16
O=C1CCCC/C=C\C[C@H](CC(=O)N(CCO)Cc2ccccc2)C(=O)NCCO1,3,20,.,-0.4,-1,-47
CC(C)(C)OC(=O)N[C@@H](Cc1ccccc1)C(=O)N1CCC(C(=O)O)CC1,-1,-9,10,-0.8,3,-21

# Random excerpt: two entries already listed
SMILES,CtBP-E1A blk,TRPML1 blocker,TRPV1 potentiator,TRPML1 agonist,Six1-Eya2 blk,D2 potentiator
Cc1sc(NC(=O)c2ccc(F)cc2)c(CN2CCCCCC2)c1C,-2,13,-11,-0.3,3,-9
Cc1ccc(C(=O)NCC(=O)Nc2ccc(Cl)cc2)s1,9,1,.,0.4,-9,-17

# Next records:
SMILES,CtBP-E1A blk,TRPML1 blocker,TRPV1 potentiator,TRPML1 agonist,Six1-Eya2 blk,D2 potentiator
COc1cnn(-c2ccc(Br)cc2)c(=O)c1SCc1ccccc1,17,25,3,-0.5,5,-1
O=C(CNC(=O)c1ccc(F)cc1)Nc1ccccc1C(F)(F)F,15,.,21,.,1,-8
CCOC(=O)c1c(C)[nH]c(C(=O)CSc2ccc(Cl)cc2)c1C,0,0,10,2.1,2,-8
N#CC1=C(SCc2ccccc2)NC2=C(C(=O)CCC2)C1c1ccc2c(c1)OCO2 (centres undefined),-11,4,5,0.7,-13,-2
CC(C)N(C(=O)[C@H]1C[C@H](CC(=O)NCCC2=CCCCC2)C(=O)N2CCc3c([nH]c4cc(-c5ccco5)ccc34)[C@]12C)C(C)C,-18,-20,.,2.1,-19,-4
O=C(N[C@@H](Cc1ccccc1)C(=O)N1CCN(S(=O)(=O)c2ccc(F)cc2)CC1)c1ccco1,-5,-14,-6,0.5,0,4

# 6 entries from above, reformatted:
Structure | CtBP-E1A blk | TRPML1 blocker | TRPV1 potentiator | TRPML1 agonist | Six1-Eya2 blk | D2 potentiator
COc1ccc(C(=O)N(C)Cc2ccon2)cc1OC1CCN(C(C)C)CC1 | -2 | 0 | 8 | 0.5 | 1 | -4
Cc1ccc(NC(=O)c2sc(=S)n(-c3cc(C)ccc3F)c2N)cc1 | -9 | -2 | -13 | -0.7 | -22 | -7
CC1CCC(NC(=O)C2c3ccccc3C(=O)N2Cc2cccs2)CC1 (centres undefined) | 1 | -2 | 1 | 2.0 | 7 | -7
COc1cccc(NC(=O)Cn2c3ccc(OC)cc3c3nc4n(c(=O)c32)CCS4)c1 | . | 18 | 9 | 0.0 | 9 | -4
COc1ccc2nc(C)cc(NCc3cccc(C(F)(F)F)c3)c2c1 | -8 | -3 | 12 | 0.4 | -2 | -14
CCN1CCN(C(=O)C2CCN(S(=O)(=O)c3ccc4c(c3)NC(=O)C(C)S4)CC2)CC1 (centres undefined) | -7 | -3 | 9 | -0.3 | 12 | -4

# Screening data: PubChem, National Center for Advancing Translational Sciences (NCATS)

# Hits appear at their usual frequency; about 0.95% have a hit in one of these screens.
